GALR2 agonist – GALR2 receptor agonists, primary screen, cell-based. Galanin receptor type 2 (Homo sapiens), O43603. GALR2-expressing cells, agonist activation read-out. activation, %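 (tested at 5 µM)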. 140,000 tested, 0.48% active. AID 803, 2007;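 active = above mean plus 3 SD of all compounds, about 5% in these data, not always enough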;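 also: 0% = vehicle buffer wells and 100% = reference agonist at full effect; tested in CHO reporter cells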
RGS16-Gao HTS – modulators of RGS16 binding to Galphao, primary screen, biochemical, human proteins, multiplexed bead flow cytometry; Regulator of G-protein signaling 16 (Homo sapiens) + Guanine nucleotide-binding protein …; bead-based flow cytometry RGS16-Galphao binding, fluorescence; actives lie on both sides; binding response (% of control), % at 10 µM; 220,000 tested, 0.38% active;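 active = below 25% or above 175%, edge rows of some plates excepted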;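 also: Galphao activated by GDP with aluminum fluoride before binding; 100% = wells without compound and 0% = beads without RGS; some results beyond the cut were filed as inactive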
INS promoter inh – inhibitors of insulin promoter-driven GFP, primary screen, imaging, TRM-6 cells (human fetal islet line), eGFP reporter, cell count | reporter expression induced with tamoxifen | inhibition, % at 2 µM | 130,000 tested, 0.9% active | AID 1273, 2008;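 active = inhibition above the mean plus 3 SD, with well images judged a real hit on visual review, cut at about 60% in these data, passing the limit was not always enough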
HSV replic up – enhancers of HSV replication in host cells, fold increase, host cell viability | HSV replication augmentation in cells | maximum fold increase | 220,000 tested, 0.005% active | AID 1956, 2009;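 active = peak rise of 1.5-fold or more in the series; tested in PC3 cells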;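 also: first round at 10 µM; read as green reporter fluorescence; hits show the peak of a series up to 25 µM; 1 = signal of infected wells without compound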
PKD1 kinase inh – inhibitors of human PKD1 kinase, biochemical, fluorescence polarization | inhibition, %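 (about 10 µM by stock and volumes)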 | PKD1 kinase fluorescence polarization assay | AID 797, 2007 | 200,000 tested, 0.056% active | Serine/threonine-protein kinase D1 (Homo sapiens), Q15139;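 active = inhibition of 50% or more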;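 also: controls were vehicle for no effect and a reference inhibitor for full effect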
Target sequence (Q15139 whole entry, looked up): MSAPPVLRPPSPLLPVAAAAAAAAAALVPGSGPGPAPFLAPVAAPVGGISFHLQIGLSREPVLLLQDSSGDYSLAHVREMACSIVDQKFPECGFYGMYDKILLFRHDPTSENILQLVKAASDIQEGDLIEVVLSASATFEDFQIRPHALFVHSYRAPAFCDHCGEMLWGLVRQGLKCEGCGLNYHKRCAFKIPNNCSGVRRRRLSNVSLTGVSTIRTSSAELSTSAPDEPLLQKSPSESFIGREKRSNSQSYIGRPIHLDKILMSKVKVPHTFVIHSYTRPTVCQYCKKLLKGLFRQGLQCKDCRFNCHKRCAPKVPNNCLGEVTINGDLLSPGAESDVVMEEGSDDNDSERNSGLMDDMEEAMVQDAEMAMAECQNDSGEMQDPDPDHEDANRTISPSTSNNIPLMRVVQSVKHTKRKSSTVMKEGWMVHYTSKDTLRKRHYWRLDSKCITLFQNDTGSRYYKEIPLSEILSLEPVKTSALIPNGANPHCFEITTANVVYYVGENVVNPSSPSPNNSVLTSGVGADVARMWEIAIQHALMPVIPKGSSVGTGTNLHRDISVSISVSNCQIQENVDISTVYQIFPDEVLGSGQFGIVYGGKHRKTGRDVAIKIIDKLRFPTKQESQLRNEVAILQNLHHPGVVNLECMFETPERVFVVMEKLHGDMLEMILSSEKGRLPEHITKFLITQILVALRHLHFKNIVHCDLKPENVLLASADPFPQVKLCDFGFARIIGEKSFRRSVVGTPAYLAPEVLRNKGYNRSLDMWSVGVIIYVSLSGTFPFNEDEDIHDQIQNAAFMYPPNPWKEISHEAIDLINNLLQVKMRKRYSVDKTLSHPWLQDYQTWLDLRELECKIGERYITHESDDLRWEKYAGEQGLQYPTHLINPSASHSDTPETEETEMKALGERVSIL
INS promoter inh cell count – further read-out of INS promoter inh, marked with its call; normalized cell count, %; measured here: cell count, toxicity; reference of the scale not given here;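 cells exposed to compound for 48 h; stained nuclei by imaging scaled within each plate; lower means fewer cells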
HSV replic up primary fold – second read-out of HSV replic up, no call of its own (marks repeat the call); fold increase; compound at 10 µM; measured here: primary screen fold increase 10 uM; tested in PC3 cells;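 GFP signal in the first replicate; 1 = infected wells without compound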
Numbers without * were called inactive; i = inactive; nt = no result given; & = joins results of further samples; [ ] = remark or other dose. Rows are unselected; overall some 1.2% were active at least once.

Every second line gives: GALR2 agonist | RGS16-Gao HTS | INS promoter inh | INS promoter inh cell count | HSV replic up | HSV replic up primary fold | PKD1 kinase inh
(1) O=c1c2c(nc3c(-c4cccc(Br)c4)c[nH]n13)CCCC2
    -2.1 | 109 | nt | nt | i | 0.88 | -2
(2) Cc1c(C(=O)NC(=S)Nc2ccccc2N2CCCC2)cccc1[N+](=O)[O-]
    -0.8 | 117 | -44 | 58 | i | 0.98 | -4
(3) O=C(NCc1ccccc1)C(c1cccs1)N(Cc1cccs1)C(=O)c1cnccn1 (stereo not given)
    -1.7 | 101 | 17 | 133 | i | 0.94 | 5
(4) CCOCCCN1CN(S(=O)(=O)c2ccc(Cl)cc2)c2nc3ccccc3nc21
    -0.9 | 102 | 8 | 191 | i | 1.3 | -1
(5) Cc1cc(C)cc(OCC(=O)NNC(=O)c2cc3ccccc3oc2=O)c1
    -0.2 | 103 | nt | nt | i | 0.93 | 0
(6) O=C(c1cnccn1)N(Cc1cccs1)C1(C(=O)NC2CCCCC2)CCCCC1
    -1.9 | 246*[activator] | -28 | 92 | i | 1.1 | -9
(7) CCNc1nc(NC(C)C)nc(N(C#N)C(C)C(=O)N(CC)CC)n1 (stereo not given)
    nt | 102 | nt | nt | i | 1.3 | nt
(8) CCCN(Cc1cc2cc(C)ccc2[nH]c1=O)C(=O)c1cccc(OC)c1
    -1.1 | 102 | -197 | 137 | i | 0.93 | -11
(9) Cc1sc2nc(SCC(=O)N(CCO)CCO)n(C3CCCCC3)c(=O)c2c1C
    -0.2 | 100 | nt | nt | i | 0.87 | -7
(10) CCNc1nc(NCC)nc(Oc2ccc(OCC)nn2)n1
    -1.2 | 107 | 7 | 134 | i | 0.88 | 4
(11) CCCCCn1c(CCNC(=O)c2cccs2)nc2ccccc21
    -0.5 | 99 | 14 | 145 | i | 0.73 | -3
(12) O=C1OCCC1Sc1nnc(-c2ccccc2)o1 (stereo not given)
    -0.9 | 92 | nt | nt | i | 1 | -9
(13) CCN(CC)Cc1cc(C(C)=O)ccc1O
    -2.1 | 100 | -13 | 92 | i | 0.88 | 1
(14) COc1cc(/C=N/N=C2/SCC(=O)N2c2ccc(O)cc2)ccc1O
    nt | 99 | -20 | 145 | i | 0.94 | 0
(15) CCCNC(=O)NC(=O)c1cnccc1C(F)(F)F
    nt | 105 | nt | nt | i | 0.86 | nt
(16) CCCN(CCC)C(=O)Cc1coc2ccc3ccccc3c12
    -2.0 | 104 | -52 | 129 | i | 0.94 | 1
(17) CCOC(=O)C1CCCN(Cc2nc(CC3CC3)no2)C1 (stereo not given)
    nt | 104 | nt | nt | i | 0.96 | nt
(18) COc1ccccc1C/C(N)=N/OC(=O)COc1cccc(C)c1
    -1.2 | 107 | 23 | 77 | i | 1 | -5
(19) COc1ccc(Cc2nnc(-c3ccccc3)o2)cc1
    nt | 102 | -113 | 117 | i | 0.85 | 6
(20) Cc1ccc(NC(=O)CCN2CCN(C/C=C/c3ccccc3)CC2)cc1C
    0.1 | 105 | -35 | 227 | nt | nt | -12
(21) COC(=O)c1c(NC(=S)NN2CCN(C)CC2)sc2c1CCC(C)C2 (stereo not given)
    nt | 96 | nt | nt | i | 0.56 | 0
(22) CCN1CCN(Cc2ccc(NC(=O)c3cc(NC(=O)N4CCNC4=O)cc(OC)c3)cc2C(F)(F)F)CC1
    nt | 101 | nt | nt | i | 0.61 | nt
(23) c1cncc(C(c2nnnn2C2CCCC2)N2CCCC2)c1 (stereo not given)
    -1.6 | 112 | nt | nt | i | 1.1 | -5
(24) O=C(Nc1cc(C(F)(F)F)ccc1N1CCOCC1)c1ccc(F)cc1
    0.4 | 99 | 36 | 114 | i | 1 | 3
(25) COc1ccc(NC2=CC(=O)N(C)C2=O)cc1
    -0.9 | 78 | 0 | 146 | i | 0.96 | 0
(26) CC(C)NC(=S)NN(c1ccccc1)c1ccccc1
    -0.1 | 102 | -43 | 96 | i | 0.99 | 8
(27) CCOc1c(Nc2cccc(Cl)c2)c(=O)c1=O
    nt | 119 | nt | nt | i | 0.92 | nt
(28) C/C(=N\NC(=O)C(=O)Nc1ccc(C)cc1)c1ccncc1
    -1.4 | 99 | 52 | 121 | i | 1.1 | 8
(29) Cc1nn(-c2ccccc2)c(N)c1C1(O)C(=O)Nc2ccc([N+](=O)[O-])cc21 (stereo not given)
    nt | 99 | nt | nt | i | 1.1 | nt
(30) COc1ccc(N2C(=O)CC(N3CCN(c4ccc(C(=O)c5cccnc5)cc4)CC3)C2=O)cc1 (stereo not given)
    -2.1 | 103 | -20 | 112 | i | 0.9 | -2
(31) Cc1noc(C)c1COc1cccc(C(=O)NCCc2c[nH]c3ccccc23)c1
    nt | 101 | -122 | 64 | i | 0.92 | 2
(32) C(#CCN1CCCC1)CC(c1ccccc1)c1ccccc1
    nt | 100 | nt | nt | i | 0.87 | -13
(33) COc1cccc(NC(=O)COc2ncnc3sc(C)c(C)c23)c1
    -1.1 | 102 | -64 | 83 | i | 1.1 | -5
(34) O=C(Nc1cc(C(F)(F)F)ccc1-n1cncn1)c1ccc(Br)cc1
    -2.3 | 79 | -56 | 174 | i | 0.9 | 3
(35) COCCCNC(=S)NC1CC2CCC(C1)N2Cc1ccccc1 (stereo not given)
    nt | 93 | nt | nt | i | 0.96 | 1
(36) CCN(CC(=O)Nc1ccc2c(c1)OC(F)(F)O2)Cc1nc2ccccc2c(=O)[nH]1
    -2.3 | 91 | 46 | 99 | i | 0.9 | 2
(37) COC(=O)/C=C/COc1ccccc1[N+](=O)[O-]
    nt | 95 | 15 | 78 | i | 0.73 | 3
(38) CCOC(=O)Cn1c(=O)c2c(nc(Br)n2CC(=O)OCC)n(C)c1=O
    0.8 | 103 | nt | nt | i | 1.1 | 4
(39) O=C(NN1C(=O)C2C3C=CC(C4CC34)C2C1=O)c1ccccc1Cl (stereo not given)
    -0.8 | 93 | nt | nt | i | 1.1 | 0
(40) Cc1ccc(C(O)(C(=O)NNc2ccc3ccccc3n2)c2ccc(C)cc2)cc1
    -2.5&-0.9 | 98&108 | nt | nt | i | 0.84&0.96 | -5&0

Among those listed so far, 3 have a Cl atom:
Every second line gives: GALR2 agonist | RGS16-Gao HTS | INS promoter inh | INS promoter inh cell count | HSV replic up | HSV replic up primary fold | PKD1 kinase inh
(4) CCOCCCN1CN(S(=O)(=O)c2ccc(Cl)cc2)c2nc3ccccc3nc21
    -0.9 | 102 | 8 | 191 | i | 1.3 | -1
(27) CCOc1c(Nc2cccc(Cl)c2)c(=O)c1=O
    nt | 119 | nt | nt | i | 0.92 | nt
(39) O=C(NN1C(=O)C2C3C=CC(C4CC34)C2C1=O)c1ccccc1Cl (stereo not given)
    -0.8 | 93 | nt | nt | i | 1.1 | 0

(more compounds)
Every second line gives: GALR2 agonist | RGS16-Gao HTS | INS promoter inh | INS promoter inh cell count | HSV replic up | HSV replic up primary fold | PKD1 kinase inh
(41) Cc1ccc(NC2=NC(=S)N(CC#N)C23CCCCC3)cc1
    0.2 | 50 | -6 | 107 | nt | nt | -7
(42) CCOc1ccc(C2CC(c3ccc(CC)cc3)n3nc(N)nc3N2)cc1 (stereo not given)
    0.3 | 96 | nt | nt | i | 0.97 | -19
(43) CCc1ccc(NC(=O)N[C@H](C(=O)O)C(C)CC)cc1 (stereo not given in full)
    nt | 101 | nt | nt | i | 0.93 | nt
(44) COc1ccc(C)cc1S(=O)(=O)NCCC1=CCCCC1
    0.3 | 109 | -4 | 137 | i | 1.1 | -13
(45) O=C(NC1CCCCC1)c1cc([N+](=O)[O-])[nH]n1
    -0.3 | 107 | 0 | 104 | i | 0.99 | 1
(46) O=c1c(Cc2c(F)cccc2Cl)c(O)ccn1CCCN1CCOCC1
    nt | 104 | nt | nt | i | 0.96 | -1
(47) CN(C)C(=O)Nc1ccccc1
    nt | 104 | nt | nt | i | 1.3 | nt
(48) CCOC(=O)N1CCN(S(=O)(=O)c2ccc3c(c2)OCC(=O)N3)CC1
    -0.2 | 148 | nt | nt | i | 0.94 | 2
(49) CCOc1ccc(C(=O)NCCc2ccc3c(c2)OCCO3)cc1
    nt | 113 | 27 | 129 | i | 0.75 | 0
(50) CCN1C=C(C(=O)OC)C(c2cccc(C)c2)C(C(=O)OC)=C1
    14* | 101 | nt | nt | i | 0.96 | -26
(51) O=C(NNc1c2ccccc2nc2ccccc12)c1ccc(O)cc1
    0.4 | 97 | -9 | 148 | i | 0.68 | -3
(52) CCOC(=O)C1=C(N)N(c2ccccc2)C(=O)C1
    -1.1 | 82 | 3 | 90 | i | 0.77 | -8
(53) O=C(CSc1ccccc1C(=O)O)NCc1ccc(Cl)cc1
    -1.3 | 102 | -20 | 154 | i | 0.94 | -5
(54) NC1=NC(c2cccc(O)c2)n2c(nc3ccccc32)N1 (stereo not given)
    -2.8 | 108 | -29 | 88 | i | 0.75 | 7
(55) CCOc1ccc(N(CC(=O)NC(C)(C)C)C(=O)c2ccco2)cc1
    0.8 | 107 | -26 | 89 | i | 0.87 | 4
(56) O=C(Cc1ccc(F)cc1)OCC(=O)c1cc2ccccc2o1
    -3.4 | 92 | -90 | 65 | i | 1.1 | 5
(57) CC(=O)N1CCN(CC(=O)Nc2cc([N+](=O)[O-])ccc2Cl)CC1
    nt | 96 | nt | nt | i | 1 | -8
(58) O=C(NNC(=O)c1ccccc1[N+](=O)[O-])c1ccco1
    nt | 111 | -13 | 109 | i | 0.94 | -4
(59) CC1CC(C)CN(CC(O)COc2ccc3c(c2)CCC3)C1 (stereo not given)
    -1.2 | 108 | 3 | 79 | i | 0.85 | 12
(60) CC(C(=O)Nc1cccc(S(=O)(=O)N2CCOCC2)c1)N1CCN(C/C=C/c2ccccc2)CC1 (stereo not given)
    nt | 102 | 0 | 111 | i | 0.94 | 5
(61) CC(C(=O)Nc1ccc(N2CCOCC2)cc1)N1C(=O)c2ccccc2C1=O (stereo not given)
    -1.0 | 100 | -31 | 113 | i | 0.95 | -4
(62) COc1cc(/C=N/NC(=O)C(=O)NCc2cccnc2)ccc1O
    -0.6 | 104 | nt | nt | i | 0.9 | -2
(63) CN1CCN(c2oc(COc3ccc(-c4ccccc4)cc3)nc2C#N)CC1
    -0.1 | 96 | 23 | 51 | i | 0.9 | -7
(64) O=C(N/N=C1\CC(c2ccccc2)Oc2ccccc21)c1cccnc1 (stereo not given)
    nt | 106 | nt | nt | i | 0.93 | -3
(65) N=C1C=CC=C2C1=NC1(CCCCC1)N2O
    -1.7 | 63 | nt | nt | i | 0.7 | 0
(66) CCCCn1cnc2cc(NCc3cccc(OC)c3O)ccc21
    -0.7 | 103 | 6 | 90 | i | 0.99 | 17
(67) O=C(NCCc1ccc(Cl)cc1)C1CCCN(S(=O)(=O)c2cnc[nH]2)C1 (stereo not given)
    -0.3 | 106 | nt | nt | i | 1.1 | -2
(68) O=C(CCCc1c[nH]c2ccccc12)Nc1ccc2ccccc2c1
    -2.0 | 87 | -20 | 115 | i | 1 | -3
(69) O=C(CN1C(=O)C2C3C=CC(C3)C2C1=O)Nc1nc2ccccc2[nH]1 (stereo not given)
    -2.6 | 107 | 40 | 62 | i | 0.95 | 2
(70) COC(=O)c1ccc(Cc2ccc(C(=O)OC)o2)o1
    -2.4 | 225 | nt | nt | i | 0.79 | -3
(71) Cc1ccc2c(c1)c1ncnc(N3CCc4ccccc4C3)c1n2C
    -0.7 | 125 | -6 | 162 | i | 0.79 | -3
(72) CCn1c(=O)cc(OCC(=O)N(C)c2ccccc2F)c2ccccc21
    -1.4 | 126 | nt | nt | i | 0.85 | -7
(73) CCOC(=O)c1sc(N)c(C#N)c1CSc1nc2ccc(C)cc2[nH]1
    0.6 | 98 | 26 | 107 | i | 1 | 6
(74) CC1=Nn2c(nc(-c3ccccc3)c2-c2ccccc2)N(CC(N)=O)C(=O)C1
    -1.9 | 102 | -70 | 52 | i | 0.98 | -4
(75) CCCCCCCC1CC(=O)C=C(C)C1C(=O)OCC (stereo not given)
    nt | 102 | nt | nt | i | 1.1 | nt
(76) CCCn1c(N)c(C(=O)CSc2nnc(-c3cccnc3)n2-c2ccc(C)cc2C)c(=O)[nH]c1=O
    0.1 | 107 | 38 | 73 | i | 1.1 | 7
(77) O=C(CN1CCc2ccccc2C1)Nc1ccc(Br)cc1
    -2.6 | 362 | 26 | 118 | i | 0.84 | -1
(78) COc1cc(C2c3c(oc4ccccc4c3=O)C(=O)N2Cc2ccco2)ccc1O (stereo not given)
    2.1 | 97 | -34 | 143 | i | 0.76 | -1
(79) O=C(Nc1cccc(C(F)(F)F)c1)C1CCN(S(=O)(=O)c2cnc[nH]2)CC1
    -0.5 | 108 | nt | nt | i | 0.83 | -5
